HTT promoter inh = HTT promoter inhibition | AID 1508623 | Potency, µM (titrated, usually from 57.5 µM), without a hit: at the top dose activity change, negative = inhibition, hits mostly inhibitors | 48,000 tested, 0.93% active | HEK293 HTT promoter firefly luciferase reporter (activity 0% = vehicle and -100% = no light), 24 h; active means well fitted inhibition curve with a large enough effect; inconclusive means small, poorly fitted or top-dose-only effect; inactive means no such curve, though single readings can be large or run the other way; further: nearly all actives have a fitted effect of over 50% in size
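HEK293 cells carrying firefly luciferase reporters were seeded at 2,500 per well in Opti-MEM and cultured for 24 h. They were then treated with compounds at up to 57.5 uM final for 24 h at 37 degrees C before Dual-Glo luminescence readout.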
PMP22 txn prim = modulators of PMP22 gene transcription in S16 Schwann cells; AID 1508649; Potency, µM (series often up to 57.5 µM), for the others: at the highest dose activity change, negative = inhibition, most hits filed as inhibitors; S16 Pmp22-F2sN Schwann cells (luciferase reporters placed in the Pmp22 gene), FLuc/NLuc coincidence luminescence, 24 h; 43,000 tested, 2% active; active = clear falling dose curves in both reporters; inconclusive = both reporters move, but less clearly or upward; inactive = either reporter flat; the % is the NLuc reporter signal; further: on the % scale 0 is the no-effect control and ±100 the full control effect; some results filed as inactive show a strong effect at the top dose
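Reporter cells (S16 Pmp22-F2sN, 500–1,000 per well) exposed to compounds for 24 h, 37C, 5% CO2; lysis with FLuc read after 10 min, then Stop&Glo and NLuc read after 10 min.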
Starred values were filed as active, the others as inactive; ? = inconclusive; . = not tested or not shown; & = joins results of further samples; [ ] = remark or other dose. Potency means the concentration at half of the fitted maximal effect.

SMILES	HTT promoter inh	PMP22 txn prim
Cc1ccc(NC(=O)CN2C(=O)COc3ccc(S(=O)(=O)N4CCCCCC4)cc32)c(C)c1	-8.3%	16.3%
CCOc1cc(CNC(=O)CCCn2c(=O)c3cccn3c3cccnc32)cc(OCC)c1OCC	-22.8%	-2.4%
COc1ccc(CCNc2nc(SCc3cccc(F)c3)nc3ccccc23)cc1OC	-3.3%	-48.9%
Cc1ccccc1-c1nc(SCC(=O)NCC2CCCO2)c2c(=O)n(C)c(=O)n(C)c2n1 (centres undefined)	13.1%	-3.4%
COc1ccc(-c2c(C)nn3c(-c4ccccc4)cc(-c4ccccc4)nc23)cc1OC	15.3%	-15.1%
CC(C)Oc1ccc2c(=O)c(-c3ccccc3)coc2c1	24.3%&37.4%&28.8%	.
Cc1nc2ccc(S(=O)(=O)N(C)CC(=O)Nc3ccc(C(C)C)cc3)cc2s1	?	-2.0%
COc1ccc(-c2noc(Cn3c(=O)c4ccccc4n(CC(=O)Nc4cccc(OC)c4)c3=O)n2)cc1	-29.4%	?
CCCCCNC(=O)c1ccc2c(=O)n(CCc3ccccc3)c(=O)[nH]c2c1	2.7%	-2.1%
Cc1cncn1CCc1nc2c3ccccc3nc(SCC(=O)Nc3ccc(F)cc3)n2n1	-2.9%	-19.9%
CCc1ccccc1Nc1nn2c(=O)c3ccc(C(=O)NC(C)c4ccccc4)cc3nc2s1 (centres undefined)	?	?
COc1ccc(OC)c(NC(=O)c2cn(CC(C)C)c(=O)c3cc(OC)c(OC)cc23)c1	-0.6%	-16.3%
CCOC(=O)c1c(C)[nH]c(C)c1S(=O)(=O)NCC(=O)Nc1ccc(C)cc1C	-19.7%	?
CCOC(=O)c1[nH]c(C)c(CCC(=O)Nc2ccc(C(C)=O)cc2)c1C	-0.9%	-11.5%
O=C(CN1C(=O)CC(c2ccco2)Sc2ccccc21)Nc1cccc(C(F)(F)F)c1 (centres undefined)	?	?
CCN(CCCNC(=O)c1cc(Nc2ccc(OC)cc2)nc2ccccc12)c1cccc(C)c1	-6.1%	-13.8%
COc1cc(OC)cc(C(=O)Nc2ccc3c(c2)N(C2CCCC2)C(=O)c2ccccc2S3)c1	?	-56.4%
Nc1ccn([C@@H]2O[C@H](CO)[C@@H](O)[C@H]2O)c(=O)n1	-19.3%	.
CS[C@H]1SC[C@@H]2C(=O)N(C)[C@H](C(C)C)C(=O)OC[C@H](NC(=O)c3cnc4ccccc4n3)C(=O)N[C@H](C)C(=O)N(C)[C@@H]1C(=O)N(C)[C@H](C(C)C)C(=O)OC[C@H](NC(=O)c1cnc3ccccc3n1)C(=O)N[C@H](C)C(=O)N2C	?	.
COc1ccccc1N1CCN(C(=O)Cn2c(=O)nc(-c3ccccc3)c3ccccc32)CC1	?	-62.4%
CCCC(O)C(CC)CO (centres undefined)	2.4%	.
CN1CCN(c2oc(-c3ccc(COc4ccc(Cl)cc4)o3)nc2C#N)CC1	?	-14.7%
CCc1ccccc1-n1c(N)c(C(=O)OC)c2nc3ccccc3nc21	-21.2%	-24.8%
Clc1ccc(-c2noc3ncnc(NCCc4ccccc4)c23)cc1	-30.2%	?
O=C(CSCc1cnn(-c2ccccc2)c1-n1cccc1)NCc1ccccc1F	-31.8%	-12.4%
Cc1ccc(-n2c(SCC(=O)Nc3ccc4c(c3)OCCO4)nc3c([nH]c4ccccc43)c2=O)cc1	-10.7%	-42.4%
CC(C)COc1ccc(C(=O)Nc2cccc(-c3nc4ccccc4[nH]3)c2)cc1	?	?
COc1ccccc1CC(=O)Nc1ccc2nc(Nc3cccc(Cl)c3)cc(C)c2c1	?	?
COc1cc(OC)c(OC)cc1/C=C/c1nc2cc3ccccc3cc2c(=O)n1-c1ccccc1Br	-21.6%	-5.7%
CCOC(=O)c1cnc2c(C)c(Cl)ccc2c1Nc1ccc(N2CCOCC2)cc1	-7.4%	-13.5%
COc1nnc(-c2ccc(N3CCCCC3)c(NC(=O)c3ccc(Cl)cc3)c2)c2ccccc12	-22.9%	15µM*
CCc1ccc(NC(=O)c2sc(-n3nc(C)c(Cc4ccc5c(c4)OCO5)c3C)nc2C)cc1	0.3%	?
O=C(NCc1ccccc1)C1CCCN(S(=O)(=O)c2cccc3nsnc23)C1 (centres undefined)	-19.8%	-38.5%
CC(C)c1ccc(Nc2cc(C(=O)NCCCN(C)Cc3ccccc3)c3ccccc3n2)cc1	-5.8%	?
CCCNC(=O)Cn1c(=O)n(CC2CCC(C(=O)NC)CC2)c(=O)c2sccc21 (centres undefined)	1.7%	-1.2%
Cc1cccc(NC(=O)C2CCCN2S(=O)(=O)c2ccc3nc(-c4ccccc4)[nH]c3c2)c1 (centres undefined)	-24.4%	?
Cc1ccc(CN2CCSc3ccc(C(=O)N4CCN(c5cc(C)ccc5C)CC4)cc32)cc1	?	?
CCCN(CCC)CCc1cccc2c1CC(=O)N2	9.5%	.
CCOc1ccccc1-c1noc(CSc2nnc(-c3ccccc3)n2-c2cccc(C)c2)n1	?	?
CCc1cccc(NC(=O)c2ccc3c(c2)N(Cc2cccc(Cl)c2)C(=O)c2ccccc2S3=O)c1 (centres undefined)	-4.0%	?
CCc1ccc(NC(=O)CCn2c(-c3ccc(OC)cc3)cc(C(C)=O)c2C)cc1	?	-12.8%
Cc1ccccc1Cn1c(=O)n(Cc2ccco2)c(=O)c2sc3ccccc3c21	-11.4%	?
Cc1cc(C)c(S(=O)(=O)NCC(c2ccco2)S(=O)(=O)c2cccs2)c(C)c1 (centres undefined)	?	?
CCC(=O)NCCc1nc2cc(NC(=O)c3cccc(Br)c3)ccc2n1C	-2.1%	0.8%
Cc1ccc(C(=O)Nc2ccccc2F)cc1S(=O)(=O)N1CCOCC1	18.3%	-4.3%
COc1ccc(NC(=O)C2CCCN(S(=O)(=O)c3ccc4c(c3)CCCC(=O)N4)C2)cc1OC (centres undefined)	?	-77.4%
Cc1ccc(S(=O)(=O)c2c(Nc3ccc(C)c(C)c3)sc(C(=O)c3ccc4c(c3)OCO4)c2N)cc1	?	6.7%
COc1cccc(-c2cc(C(=O)NCc3ccccc3)[nH]n2)c1	43.6%[activator]	0.2%
O=C(Cn1c(=O)c2ccccc2n(CC(=O)Nc2ccc(F)cc2F)c1=O)NCCc1ccccc1	-7.2%	-0.1%
COc1ccc(CNc2nc3c(-c4cccc(C)c4)nnn3c3ccccc23)cc1	-10.9%	?
Cc1nnc(N2CCC(C(=O)N3CCCCC3)CC2)c2nn(-c3ccc(Cl)cc3)c(C)c12	-9.7%	18.9µM*
Cc1ncc([N+](=O)[O-])n1CC(O)CCl (centres undefined)	1.2%	.
Cc1ccccc1-c1nc2scc(CCNC(=O)C(=O)Nc3ccc(F)cc3F)n2n1	1.9%	-4.1%
Cc1ccc(-c2noc(CNC(=O)c3ccc(C(C)(C)C)cc3)n2)cc1	-2.1%	1.2%
CCN(CC)S(=O)(=O)c1ccc2c(c1)c(=O)c(C(=O)NCc1ccccc1Cl)cn2C	?	?
Cc1ccc(C)c(N2CCN(C(=O)C3CCC(CNS(=O)(=O)c4ccc(Br)s4)CC3)CC2)c1 (centres undefined)	-27.1%	-26.3%
CCOc1ccc(NC(=O)N2CC=C(c3c[nH]c4ccccc34)CC2)cc1	?	?
CCCCNC(=O)CSc1nc2cc3c(cc2c(=O)n1CCCCCC(=O)NCc1ccc2c(c1)OCO2)OCO3	-6.3%	?
Cc1cc(C)n(C(C)CC(=O)Nc2ccc(C)c(F)c2)n1 (centres undefined)	-7.4%	11.5%
O=C(Nc1ccc(S(=O)(=O)N2CCCCC2c2cccnc2)cc1)c1ccc(Br)cc1 (centres undefined)	?	?

Laid out differently: twelve of the compounds above.
Structure | HTT promoter inh | PMP22 txn prim
Cc1ccc(NC(=O)CN2C(=O)COc3ccc(S(=O)(=O)N4CCCCCC4)cc32)c(C)c1 | -8.3% | 16.3%
CCOc1cc(CNC(=O)CCCn2c(=O)c3cccn3c3cccnc32)cc(OCC)c1OCC | -22.8% | -2.4%
COc1ccc(CCNc2nc(SCc3cccc(F)c3)nc3ccccc23)cc1OC | -3.3% | -48.9%
Cc1ccccc1-c1nc(SCC(=O)NCC2CCCO2)c2c(=O)n(C)c(=O)n(C)c2n1 (centres undefined) | 13.1% | -3.4%
COc1ccc(-c2c(C)nn3c(-c4ccccc4)cc(-c4ccccc4)nc23)cc1OC | 15.3% | -15.1%
CC(C)Oc1ccc2c(=O)c(-c3ccccc3)coc2c1 | 24.3%&37.4%&28.8% | .
Cc1nc2ccc(S(=O)(=O)N(C)CC(=O)Nc3ccc(C(C)C)cc3)cc2s1 | ? | -2.0%
COc1ccc(-c2noc(Cn3c(=O)c4ccccc4n(CC(=O)Nc4cccc(OC)c4)c3=O)n2)cc1 | -29.4% | ?
CCCCCNC(=O)c1ccc2c(=O)n(CCc3ccccc3)c(=O)[nH]c2c1 | 2.7% | -2.1%
Cc1cncn1CCc1nc2c3ccccc3nc(SCC(=O)Nc3ccc(F)cc3)n2n1 | -2.9% | -19.9%
CCc1ccccc1Nc1nn2c(=O)c3ccc(C(=O)NC(C)c4ccccc4)cc3nc2s1 (centres undefined) | ? | ?
COc1ccc(OC)c(NC(=O)c2cn(CC(C)C)c(=O)c3cc(OC)c(OC)cc23)c1 | -0.6% | -16.3%

Next section
SMILES	HTT promoter inh	PMP22 txn prim
COc1ccc(C(=O)NCCc2sc(-c3cccc(F)c3)nc2C)cc1	-25.9%	-8.3%
CCN(CC)c1cc(C)c2cc(NC(=O)c3ccc(F)cc3Cl)ccc2n1	-17.2%	?
Cc1ccc(CNC(=O)CCCCCn2c(=O)c3sccc3n(CC(=O)C(C)(C)C)c2=O)cc1	-21.4%	?
CCOC(=O)c1noc2ncnc(N(CCC(=O)OC)c3ccccc3)c12	-27.5%	-18.6%
CCOc1ccc(CNC(=O)Cn2nc(C)c3c(C)n(-c4ccc(C)cc4)nc3c2=O)cc1	-26.0%	-28.5%
CCc1ccc(C(=O)c2c(N)c(-c3nc(-c4ccc5c(c4)OCO5)cs3)c3ccccn23)cc1	-2.1%	-8.8%
Cc1ccc(NC(=O)CC2Sc3ccc(C(F)(F)F)cc3NC2=O)cc1 (centres undefined)	-3.4%	-21.0%
COc1cccc2sc(=NC(=O)c3ccc(S(=O)(=O)N4CCCCC4)cc3)n(C)c12	-5.4%	-7.0%
Cc1cc(C)c(NC(=O)Cc2csc(C)n2)c(Cl)c1	15.3%	-14.0%
Cc1nn(Cc2noc(C(=O)NCc3ccc(F)cc3)n2)c(C)c1Br	-13.9%	-0.1%
COc1ccc(C(=O)Nc2ccc3nc(SCc4ccc(C)cc4)sc3c2)cc1	?	?
COC(=O)Cn1c(C2CC(=O)N(c3c(C)cccc3C)C2)nc2ccccc21 (centres undefined)	-6.8%	-17.4%
CC(C)c1ccc(NC(=O)c2ccc(NC(=O)CCS(=O)(=O)c3cccs3)cc2)cc1	-18.7%	-5.2%
Cc1cccc(N2CCN(C(=O)C3CCCN(S(=O)(=O)c4ccc(Br)s4)C3)CC2)c1C (centres undefined)	?	?
Cc1oc(-c2cccc(Cl)c2)nc1CSc1nnc(C)n2c1cc1occc12	-0.3%	1.5%
Cc1ccc(-c2nc(S(=O)(=O)c3ccc(C)cc3)c(SCC(=O)NC3CCCCC3)o2)cc1	-20.0%	?
Cc1ccc(C)c(Cn2c3ccccc3c3cnn(CC(=O)N4CCCCC4)c(=O)c32)c1	16.5%	-7.6%
CCCCNC(=O)C1CCCN(Cc2nc(-c3ccc(Cl)cc3)oc2C)C1 (centres undefined)	-0.3%	?
CC(C)Oc1ccc(CNC(=O)C2CCN(Cc3cc4ccccc4n3Cc3ccccc3)CC2)cc1	-26.6%	-21.7%
CCN(CC)C(=O)c1sc2c(c1C)c(=O)n(-c1ccc(C)c(C)c1)c(=O)n2Cc1cc(=O)n2c(C)cccc2n1	-1.1%	-25.4%
Cc1cccc(CN2C(=O)c3ccccc3S(=O)(=O)c3ccc(C(=O)N4CCN(c5cc(C)ccc5C)CC4)cc32)c1	-18.9%	-0.9%
COc1ccc(-n2nc(C(=O)N3CCN(c4cccc(C)c4)C(C)C3)c3c4ccccc4n(C)c3c2=O)cc1 (centres undefined)	-4.1%	-74.9%
Cc1ccc(NC(=O)c2cnn3c(C(F)F)cc(-c4ccccc4)nc23)cc1F	-2.3%	-28.9%
CNC(=O)C1CCC(Cn2c(=O)c3sccc3n(CC(=O)NCc3ccc(OC)cc3)c2=O)CC1 (centres undefined)	-20.1%	39.2%
COc1ccc(Cn2c(C(=O)O)c(CNCCc3ccco3)c3ccc(C)cc32)cc1	-17.2%	18.5%
CC(=O)c1ccc(NC(=O)CSc2nc(-c3ccccc3F)nc3c2c(=O)n(C)c(=O)n3C)cc1	-13.0%	-18.9%
CCOC(=O)c1cc(-c2ccccc2)n(-c2cccc(C(=O)Nc3ccc(OC)cc3)c2)c1C	?	0.7%
CCOC(=O)N1CCc2c(sc3c2c(=O)n(-c2ccc(Cl)cc2)c(=O)n3CC(=O)Nc2ccccc2)C1	-28.4%	?
CCn1nc(-c2ccccc2)c(-c2ccccc2)c(C(=O)Nc2ccccc2C(N)=O)c1=O	-0.3%	40.5%
O=C(NCCc1ccccc1)C1CCN(c2ncnc3c2nc2n3CCCCC2)CC1	11.0%	-15.9%

Source: PubChem (National Center for Advancing Translational Sciences (NCATS))
